NPYLR7 ag: mosquito NPYLR7 agonism | HEK293T NPYLR7/Galpha15, GCaMP6s calcium fluorescence | activation, % at 10 µM | actives 0.15% (n = 270,000) | AID 1259423; in the data active = activation above about 40%;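 note: 0% = vehicle and 100% = reference agonist at the receptor; some compounds past the cut are filed as inactive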
NPYLR7 ag max-min: recorded beside NPYLR7 ag, whose call it bears; activation, %; measured here: Max-Min RFU normalised activation; some inactives read as strong as hits;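 span of the calcium signal over five minutes; 0% = vehicle and 100% = native peptide agonist; compound fluorescence can raise it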
Active calls of the source: *. The list is partial, so the mix of outcomes need not match the whole.

Results follow in this order: NPYLR7 ag, NPYLR7 ag max-min
CCNC(=O)CCNc1ccc(C(F)(F)F)cc1[N+](=O)[O-]
    3, -1
COCC(=O)N(Cc1cccc(OS(=O)(=O)c2ccc(F)cc2)c1)C1CC1
    -6, 2
CCC(=O)OCC(=O)C1(OC(=O)CC)C(C)CC2C3CCC4=CC(=O)C=CC4(C)C3(Cl)C(O)CC21C (centres undefined)
    -7, -13
Cc1ccc(CN2CCN(Cc3ccc4cc(F)ccc4n3)CC2CCO)o1 (centres undefined)
    -4, -5
CCOC(=O)CC1CCCCN1Cc1nc(-c2ccc(C(=O)OC)cc2)oc1C (centres undefined)
    -1, -2
O[C@@H]1CC[C@H]2C[C@@H]1[C@@H](Oc1ccccn1)CN2Cc1ccc(Oc2ccccc2)cc1
    20, 28
CCCN(CC(=O)N(Cc1cccn1C)C1CC1)S(=O)(=O)c1ccc(NC(C)=O)cc1
    21, 29
Cc1nnc(SCc2cccc3ccccc23)[nH]c1=O
    -3, -2
CSc1nnc(CC2CCN(C(=O)CCc3cc(=O)[nH]o3)CC2)n1C
    -1, -3
Cc1ccccc1SCC(=O)Nc1cccc(N2C(=O)NCC2C)c1 (centres undefined)
    15, 10
CC(C)c1nnsc1C(=O)NC1CC(=O)N(Cc2cccc(F)c2)C1 (centres undefined)
    -4, -7
COC(=O)c1ccc(CNC2CC(=O)N(Cc3ccccc3Cl)C2)cc1 (centres undefined)
    18, 9
N#CC1C(=N)SC(=N)C(C#N)C1c1ccc(F)c(Br)c1 (centres undefined)
    10, 9
COC(=O)C(C)Sc1nc2sc3c(c2c(=O)n1C)CCC3 (centres undefined)
    51*, 42*
CCOC(=O)c1c(NC(=O)c2ccc(SC(F)(F)F)cc2)sc2c1CCC(C#N)(c1ccccc1)C2 (centres undefined)
    5, 1
CC(NC(=O)CC(C)(C)C)c1ccc(-n2cncn2)cc1 (centres undefined)
    4, 2
C=CCn1c(C)nnc1S(=O)(=O)Cc1ccc(F)cc1Cl
    4, 5
C=CCn1cc(CN(C)Cc2cc(-c3cccnc3)no2)c(C)n1
    -3, -9
COc1ccc(CCNC(=O)c2ccccc2N2CCC(NC(=O)C3CC3)CC2)cc1OC
    -3, -1
O=C(Cn1c(-c2cccs2)n[nH]c1=S)N1CCCCCC1
    4, 12
CC(NC(=O)c1nn2c(C(F)(F)F)cc(-c3ccccc3)nc2c1Br)C1CC2CCC1C2 (centres undefined)
    -11, -21
O=C(NN1CCCCC1)c1oc2ccccc2c1COc1ccccc1
    -4, -7
COc1ccc(N2CCN(c3nc(SCc4ccc(C(=O)NCc5ccco5)cc4)nc(C)c3C)CC2)cc1
    6, 10
Cc1nc(CCNC(=O)CCc2n[nH]c3c2CCCC3)nc2c1CCCC2
    24, 16
O=C(NCCCl)N1CCn2cccc2C1c1ccc(Cl)cc1 (centres undefined)
    5, 4
CCOc1ccc(C(=O)NCCn2c(C)cc3ccccc32)cc1OCC
    -2, -5
C=CCN(CC1CC(c2cccc(F)c2)=NO1)C(=O)NCC (centres undefined)
    28, 28
CCCc1cc(=O)n2[nH]c(NCc3cccc([N+](=O)[O-])c3)nc2n1
    -17, -21
COC(=O)c1cc(S(=O)(=O)NC2CCC(C)CC2)c(Br)o1 (centres undefined)
    0, 27
CCC(NC(=O)c1occc1C)c1ccnn1C (centres undefined)
    -2, -4

A draw from above in order of SMILES length, largest number first.
Results follow in this order: NPYLR7 ag, NPYLR7 ag max-min
CCC(=O)OCC(=O)C1(OC(=O)CC)C(C)CC2C3CCC4=CC(=O)C=CC4(C)C3(Cl)C(O)CC21C (centres undefined)
    -7, -13
O[C@@H]1CC[C@H]2C[C@@H]1[C@@H](Oc1ccccn1)CN2Cc1ccc(Oc2ccccc2)cc1
    20, 28
CCOC(=O)c1c(NC(=O)c2ccc(SC(F)(F)F)cc2)sc2c1CCC(C#N)(c1ccccc1)C2 (centres undefined)
    5, 1
COc1ccc(N2CCN(c3nc(SCc4ccc(C(=O)NCc5ccco5)cc4)nc(C)c3C)CC2)cc1
    6, 10
CC(NC(=O)c1nn2c(C(F)(F)F)cc(-c3ccccc3)nc2c1Br)C1CC2CCC1C2 (centres undefined)
    -11, -21
CCCN(CC(=O)N(Cc1cccn1C)C1CC1)S(=O)(=O)c1ccc(NC(C)=O)cc1
    21, 29
COc1ccc(CCNC(=O)c2ccccc2N2CCC(NC(=O)C3CC3)CC2)cc1OC
    -3, -1
COCC(=O)N(Cc1cccc(OS(=O)(=O)c2ccc(F)cc2)c1)C1CC1
    -6, 2
CCOC(=O)CC1CCCCN1Cc1nc(-c2ccc(C(=O)OC)cc2)oc1C (centres undefined)
    -1, -2
CC(C)c1nnsc1C(=O)NC1CC(=O)N(Cc2cccc(F)c2)C1 (centres undefined)
    -4, -7
Cc1ccc(CN2CCN(Cc3ccc4cc(F)ccc4n3)CC2CCO)o1 (centres undefined)
    -4, -5
CCNC(=O)CCNc1ccc(C(F)(F)F)cc1[N+](=O)[O-]
    3, -1
C=CCn1cc(CN(C)Cc2cc(-c3cccnc3)no2)c(C)n1
    -3, -9
N#CC1C(=N)SC(=N)C(C#N)C1c1ccc(F)c(Br)c1 (centres undefined)
    10, 9
C=CCn1c(C)nnc1S(=O)(=O)Cc1ccc(F)cc1Cl
    4, 5
O=C(NCCCl)N1CCn2cccc2C1c1ccc(Cl)cc1 (centres undefined)
    5, 4
Cc1nnc(SCc2cccc3ccccc23)[nH]c1=O
    -3, -2
CCC(NC(=O)c1occc1C)c1ccnn1C (centres undefined)
    -2, -4

New compounds follow:
Results follow in this order: NPYLR7 ag, NPYLR7 ag max-min
COc1ccc2cc(-c3nc4ccccc4[nH]3)c(=Nc3ccc(F)cc3)oc2c1
    -8, -12
CCc1nc(SCC(=O)NCCc2nc3c(C)c(C)ccc3[nH]2)n[nH]1
    -2, -12
Cc1ccsc1CN(Cc1ccc2c(c1)OCO2)C(=O)CN(CCN1CCOCC1)C(=O)c1ccc(Cl)c(Cl)c1
    7, 13
Cc1cc(N)n(-c2nc3c(cnn3-c3ccccc3)c(=O)[nH]2)n1
    1, 1
CCCCS(=O)(=O)Nc1ccc(NC(=O)c2cccn2C)cc1
    7, 4
CN(C)c1ccc(NC(=O)c2cccs2)cc1CN(CC1CCCO1)S(=O)(=O)c1cccc(Cl)c1 (centres undefined)
    17, 19
CCC(CO)NCc1ccc(C(C)C)cc1 (centres undefined)
    -16, -21
Nc1ccc(O)c2c1C(=O)c1ccccc1C2=O
    -3, -5
CCN(CC)S(=O)(=O)c1cc(C(=O)Nc2ccc(C)cc2)ccc1Cl
    3, -3
CC(C)C(=O)NC(NC(=S)Nc1ccccc1O)C(Cl)(Cl)Cl (centres undefined)
    -13, -23
CC1=C(C(=O)NC(C)c2cnn(-c3ccccn3)c2C)OCCO1 (centres undefined)
    16, 9
CS(=O)(=O)c1ccc(Nc2cc3c(cn2)ncn3CC2CC2)cc1
    -5, 0
Cc1ccc(-c2nc(CNC(=O)C3CCOC3)[nH]c2-c2ccccn2)cc1 (centres undefined)
    -1, -2
CCCn1cc(C(=O)N2CCN(C(=O)OCC)CC2)c2nn(-c3ccccc3)c(=O)c-2c1
    14, 13
Cc1sc(-c2nc3ccccc3n2C)cc1S(=O)(=O)O
    1, -1
Cc1ccc(CSc2nc3c(c(=O)n2CCc2ccccc2)SCC3)cc1
    6, 1
O=C(Nc1ccc(C(=O)N2CCCC2c2ccccn2)cc1)NC1CC1 (centres undefined)
    11, 12
CN(CCC(=O)Nc1c(Cl)cccc1Cl)Cc1ccsc1
    -2, -5
CCCCN(CC(=O)N(CCc1c[nH]c2ccccc12)Cc1ccccc1)S(=O)(=O)c1cc(Cl)ccc1Cl
    3, 7
COc1ccc(NC(=O)N2CCN(c3nc(C)nc(C)c3Cc3cccc(C)c3)CC2)c(OC)c1
    28, 26
CCS(=O)(=O)NCCc1csc(-c2cccc(F)c2)n1
    3, 2
CCN(C(=O)c1cc2n(n1)CCN(Cc1ccccc1)C2)[C@H]1COC[C@@H]1O
    8, 6
CCS(=O)(=O)c1ncc(CN2CCC(OC)CC2)n1CCCc1ccccc1
    7, 5
N#Cc1ccc(OCC(=O)N2CCCC2c2nc3ccccc3[nH]2)cc1 (centres undefined)
    10, 6
O=S(=O)(c1c(Cl)cccc1Cl)N1CCN(Cc2cc(-c3ccccc3)no2)CC1
    1, 2
O=C(c1c[nH]c2ccc(F)cc2c1=O)N1CCc2c(nc[nH]c2=O)C1
    0, 1
COCCN1C(c2ccccc2)=CC(=C2C(=O)N(C)C(=O)N(C)C2=O)C2=C1CCCC2
    -9, -13
C=c1onc(-c2ccccc2)c1=c1[nH]/c(=C\c2ccccc2OC)c(=O)o1
    -2, -4
CCc1nc2c(OCC=C(C)C)cccn2c1N(C)C(=O)c1ccccc1F
    -7, 1
CCCn1c(CC)nc([N+](=O)[O-])c1S(=O)(=O)c1ccc(Cl)cn1
    -4, 3
Cc1c(N=Cc2cccc([N+](=O)[O-])c2)c(=O)n(-c2ccccc2)n1C
    -3, -8
O=C(NCc1ccc(Cl)s1)NC(CO)Cc1ccc(O)cc1 (centres undefined)
    1, 3
O=C(c1ccc(S(=O)(=O)Nc2cccnc2)o1)N1CCCC1
    -10, -11
O=C(CSc1ncnc2c1nnn2Cc1ccc(Cl)cc1)N1CCCc2ccccc21
    17, 16
N#CCCN(CC1CCCO1)C(=O)C1CCc2ccccc2C1 (centres undefined)
    9, 5
COc1cccc(C(=O)N2CCOC(CC3CCCCC3)C2)c1OC (centres undefined)
    20, 9
COc1ccc(CC(=O)Nc2cc(C)nn2-c2nc(C)c(C)c(=O)[nH]2)cc1OC
    8, 1
Cn1nc(-c2ccc(NC(=O)c3ccc(-c4ccccc4)cc3)cc2)ccc1=O
    -1, -2
CC(C)C(=O)Nc1ccc(-n2cnc(C(=O)N3CCc4ccccc4C3)c2)nc1
    -6, -8
O=C(NCCC1COc2ccccc2O1)c1ccc(NCC2CC2)nc1 (centres undefined)
    11, -2
CCc1nc(C2CCCN2Cc2nc3ccccc3c(=O)[nH]2)no1 (centres undefined)
    3, 2
O=C1C(=Cc2cccc3ccccc23)Sc2ccccc21
    6, 2
S=C(NCc1cccs1)N1CCn2c1nc1ccccc12
    8, 13
CCN1CCN(c2cc(=O)n(-c3ccccc3Cl)c(=O)[nH]2)CC1
    8, 10
Cc1ccccc1-c1cc(O)c2c(c1)CN(C(=O)C1CCNC1)CCO2 (centres undefined)
    3, 2
CCOc1ccc(-n2nnc3c(N4CCN(S(=O)(=O)c5cccs5)CC4)ncnc32)cc1
    -7, -20
COc1cc(C(=O)N2CCC(c3n[nH]c(C)n3)CC2)cc(OC)c1C
    -3, -3
COC(=O)N(C)Cc1cccc(N2CCN(C(=O)OC(C)(C)C)CC2)c1F
    1, 4
O=c1[nH]c2c(s1)C=Nc1cc3ccccc3cc1N2
    33, 17
Cn1c(=O)[nH]c(=O)c2c1nc(N1CCCCC1)n2CC(O)CO (centres undefined)
    7, 4
CCOc1ccc(/C=C2/SC(=S)N(CC(=O)O)C2=O)cc1OC
    -4, -9
COCCNC(=O)Cn1nc2c(c1NC(=O)Cc1ccccc1Cl)CSC2
    -3, 7
O=C(CCn1cc(Cl)cn1)N1C[C@@H]2[C@H](C1)[C@H]1CC[C@@H]2O1
    46, 30
O=C(c1ccc(Cl)cc1)N1CCOc2ccc(CN3CCN(c4ccccc4)CC3)cc2C1
    0, -5
NS(=O)(=O)c1ccc(NC(=O)CSc2nnc3ccccn23)cc1
    -5, -11
COc1ccc(-n2nc(C(C)(C)C)c3c2N(CC(=O)N2CCOCC2)C(=O)CSC3c2ccc(OC)c(OC)c2)cc1 (centres undefined)
    17, 19
Cc1ccc(-c2cc3c(=O)n(Cc4ccccc4)ccn3n2)cc1C
    -2, -6
COCC(=O)N(Cc1ccco1)Cc1cc(NC(=O)c2cccc(F)c2)ccc1N(C)C
    1, 12
O=C1SCCC1NS(=O)(=O)c1ccc(Cl)cc1 (centres undefined)
    8, 6
COc1ccc(C(=O)N(Cc2cc(NS(=O)(=O)c3ccc(OC)cc3)ccc2N(C)C)C(C)c2ccccc2)cc1 (centres undefined)
    16, 17

The results go on.
Results follow in this order: NPYLR7 ag, NPYLR7 ag max-min
O=C(c1cnn2c1NC(c1ccco1)CC2C(F)(F)F)N1CCCc2ccccc21 (centres undefined)
    20, 11
C=CCSc1nc(-c2ccccc2)cc(-c2ccccc2OC)c1C#N
    0, -3
CCN(CC)c1c(C)nc2ccc(C(=O)Nc3cccc(OC)c3)cn12
    -8, -12
COc1cc(NC(=O)CN2CC(=O)Nc3ccccc32)cc(OC)c1OC
    5, 3
CC(C)Cc1ncc2c(n1)CN(C(=O)c1sccc1Cl)C2
    -1, -3
CC(C)CN(Cc1nccn1Cc1ccc(Cl)c(Cl)c1)C(=O)c1ccccc1F
    18, 26
OC(COCc1ccccc1)CN(Cc1ccccc1)Cc1cccc(F)c1 (centres undefined)
    18, 16
CC(C)Cn1c(SCC(=O)NC(=O)NC(C)(C)C)nc2ccccc21
    -12, -15
O=S(=O)(NCCOc1ccc(-c2ccc(F)cc2)nn1)c1ccc2ccccc2c1
    -7, -7
Cn1c(O)c(N=NC(=O)COc2c(Cl)cc(Cl)cc2Cl)c2ccccc21
    -7, -12
Cc1cccc(C(=O)NC(C(=O)N2CC=C(c3c[nH]c4ccccc34)CC2)C(C)C)c1 (centres undefined)
    0, -1
Cc1cccnc1N1CCN(Cc2cn[nH]c2C(=O)O)CC1
    1, -3
N#Cc1ccccc1COC1C[C@](OCc2cccc(C(F)(F)F)c2)(C(=O)NCC2CC2)C[C@@H](O)[C@H]1O (some centres undefined)
    2, 10
Cc1cccc(-c2ccc(NC(=O)C3CCN(C(=O)Cn4cccn4)CC3)cc2)c1
    -2, -1
Cc1ccc(C(=O)NCC(c2ccc3c(c2)CCN3C)N2CCN(C)CC2)cc1 (centres undefined)
    11, 6
CCN(Cc1ccncc1)Cc1cn(-c2ccccc2)nc1-c1ccc(OC)cc1F
    8, -4
COCCN(Cc1nc2ccccc2o1)C(=O)c1cccnc1Cl
    -18, -19

Bioassay records from PubChem BioAssay.
